# Sfp inh: Sfp phosphopantetheinyl transferase inhibition | AID 1490 | Q9F4F7 | 3.5% of 310,000 active | Biochemical Sfp PPTase activity, qHTS | Potency, µM, for inactives: max response, negative = inhibition, usual class: inhibitors; active means well fitted inhibition curve with a large enough effect; inconclusive means small, poorly fitted or top-dose-only effect, or another doubt; inactive means no such curve, though single readings can be large or run the other way;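 further: the enzyme is Sfp with the accession as filed and its product quenches rhodamine fluorescence; potency means the concentration at half of the fitted maximal effect; 0% = enzyme reaction without inhibitor and -100% = no enzyme wells; top concentration of the series not given in the record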
#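 Reaction rates are the 30-min fluorescence difference (ex 525, em 598 nm) in wells containing 15 nM Sfp, 5 uM rhodamine-CoA and 12.5 uM BHQ-2-YbbR at pH 7.6 with 10 mM MgCl2.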
# gsp ag: agonists of gsp mutant (McCune-Albright syndrome) | gsp mutant cells, cAMP HTRF, 30 min; control for the full effect not named in the record | Potency, µM (top dose mostly 76.9 µM), without a hit: top-dose activation (cAMP increase), most hits filed as activators | 0.13% of 340,000 active; active = well fitted activation curve with a large enough effect; inconclusive = small, poorly fitted or top-dose-only effect, or another doubt; inactive = no such curve, though single readings can be large or run the other way; cell line not stated here;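 further: phosphodiesterase inhibitor Ro 20-1724 added with compounds to block cAMP breakdown; potency means the concentration at half of the fitted maximal effect; nearly all actives have a fitted effect of over 60% in size; about a fifth of the inactives were tested at one dose only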
#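 Cells in DMEM/10% FBS with G418 were pretreated with compounds in DMSO plus […] (300 uM stock) for 30 min at 37C. cAMP was measured by HTRF (cAMP-d2 plus anti-cAMP antibody-K) after 30 min at room temperature.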
# gsp antag: antagonizes gsp, the McCune-Albright syndrome mutation; gsp-mutant cells, cAMP HTRF, 30 min; control for the full effect not named in the record; Potency, µM (doses to about 76.9 µM), without a hit: at the top dose activity change, negative = inhibition, hits mostly inhibitors; 0.4% of 340,000 active; AID 624288; active = falling curve of any shape with a large fitted effect; inconclusive = falling curve, mostly with a smaller effect; inactive = flat or rising curve; cell line not stated here;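 further: intracellular cAMP measured with PDE inhibitor Ro 20-1724 present during compound exposure; potency means the concentration at half of the fitted maximal effect; on the % scale 0 is the no-effect control and ±100 the full control effect; nearly all actives have a fitted effect of over 65% in size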
#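 Measurement of cellular cAMP by homogeneous time-resolved fluorescence following a 30 min compound exposure at 37C. The PDE inhibitor […] was present throughout; the assay buffer was DPBS with 0.05% BSA and 0.005% Tween 20.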
# TRPV1 PAM: human TRPV1 potentiation | Q8NER1 | TRPV1-expressing cells, Fluo-8 calcium influx, capsaicin EC20 potentiation; host cell line not named in the record; control for the full effect not named in the record | potentiation, % at 8.33 µM | 0.02% of 320,000 active | AID 540277; active means potentiation above 80%; inconclusive means 30% to 80%; inactive means below 30%; further: 0% is about no effect
# Target sequence (Q8NER1 whole entry, looked up): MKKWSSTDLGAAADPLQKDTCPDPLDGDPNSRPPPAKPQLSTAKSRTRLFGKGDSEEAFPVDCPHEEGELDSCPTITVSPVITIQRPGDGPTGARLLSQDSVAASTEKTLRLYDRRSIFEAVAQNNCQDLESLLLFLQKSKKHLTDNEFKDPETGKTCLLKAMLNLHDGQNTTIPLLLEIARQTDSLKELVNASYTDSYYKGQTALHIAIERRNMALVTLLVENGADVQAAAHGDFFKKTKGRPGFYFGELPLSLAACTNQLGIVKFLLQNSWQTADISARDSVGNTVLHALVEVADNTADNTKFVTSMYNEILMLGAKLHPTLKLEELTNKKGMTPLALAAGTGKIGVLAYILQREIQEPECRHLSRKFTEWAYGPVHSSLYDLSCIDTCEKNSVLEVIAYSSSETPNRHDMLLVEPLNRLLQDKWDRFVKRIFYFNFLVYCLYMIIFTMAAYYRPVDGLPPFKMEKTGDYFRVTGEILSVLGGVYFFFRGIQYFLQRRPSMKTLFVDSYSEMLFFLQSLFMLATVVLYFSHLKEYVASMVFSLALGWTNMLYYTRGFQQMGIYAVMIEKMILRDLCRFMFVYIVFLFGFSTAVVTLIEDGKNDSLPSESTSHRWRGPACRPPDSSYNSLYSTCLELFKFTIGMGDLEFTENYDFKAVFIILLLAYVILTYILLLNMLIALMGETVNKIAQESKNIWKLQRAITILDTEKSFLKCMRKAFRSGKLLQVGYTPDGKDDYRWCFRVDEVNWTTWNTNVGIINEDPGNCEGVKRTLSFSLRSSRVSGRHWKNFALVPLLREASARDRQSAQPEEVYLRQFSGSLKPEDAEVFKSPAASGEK
#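 TRPV1-expressing cells were cultured overnight at 35.5C and loaded with Fluo-8 calcium dye for 40 to 90 min at room temperature. After a 10 s baseline, compound was added and calcium influx was read kinetically for 3 min (ex 480/em 520 nm).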
# CtBP-E1A inh: blocks the CtBP interaction with E1A | AlphaScreen GST-E1A/His-CtBP binding, 1536-well; hits give low values; control for the full effect not named in the record | activity change, % (concentration not given with the values) | 0.49% of 340,000 active; in the data active means activity change below about -65%; inconclusive means about -30% to -65%; inactive means above about -30%; further: on the % scale 0 is the no-effect control and ±100 the full control effect
#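 AlphaScreen with 125 nM GST-E1A and 125 nM His-CtBP (5X stocks) in Tris pH 8.0, 300 mM NaCl, BSA, Tween 20, TCEP. Compounds preincubated 2 h at 37 deg C, then glutathione donor/nickel acceptor beads added for 1 h at 37 deg C in dark.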
# ClpP mod: qHTS Assay for Activators of ClpP; ATP-dependent Clp protease proteolytic subunit (Bacillus subtilis (strain 168)), P80244; purified B. subtilis ClpP, FRET peptide cleavage, 20 min; Potency, µM (titrated, usually from 57.5 µM), for inactives: at the top dose activity change, negative = active; 1.9% of 340,000 active; AID 651965, 2013; active = well fitted falling curve with a large enough effect; inconclusive = small, poorly fitted or top-dose-only effect; inactive = no such curve, though single readings can be large or run the other way; further: potency means the concentration at half of the fitted maximal effect; the source files actives as falling curves though it sought activators and does not explain the sign; nearly all actives have a fitted effect of over 65% in size; many hits overshoot -100%
# Target sequence (P80244 whole entry, looked up): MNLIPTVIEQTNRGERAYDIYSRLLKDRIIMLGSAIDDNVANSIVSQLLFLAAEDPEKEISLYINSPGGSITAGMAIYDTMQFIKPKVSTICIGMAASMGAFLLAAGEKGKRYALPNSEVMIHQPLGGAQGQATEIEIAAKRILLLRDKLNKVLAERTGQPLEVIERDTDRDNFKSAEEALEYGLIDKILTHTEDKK
#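 Purified B. subtilis ClpP, 10 microg/mL final in Tris/HCl pH8 with KCl, BSA, glycerol and Tween-20, cleaved an Abz/nitrotyrosine-quenched decapeptide. Fluorescence (ex 320, em 430) was read at 0 and 20 min at room temperature. Delta was normalized to 5.8 microM ADEP and DMSO/no-enzyme controls.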
# Menin MLL FP FL: menin-MLL binding inhibition, fluorescein peptide; Fluorescence polarization, fluorescein-MLL peptide displacement from menin; AID 1766; 290,000 tested, under 10 active; FP activity change, % at 61.4 µM; inconclusive = falling polarisation curve, or a change in total fluorescence; inactive = total fluorescence flat and polarisation flat or rising; no compound was filed as active; the % refers to the polarisation; negative = inhibition;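 further: % of control where 0% means no effect; inhibitors lower the polarisation; unlabelled MLL peptide was the positive control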
# The depositor's hits bear a star; ? = inconclusive; . = not tested or not shown; & = joins results of further samples; [ ] = remark or other dose. Random draw from the library; 5.3% or so of the library scored in one or more.
no.	structure	Menin MLL FP FL	gsp ag	Sfp inh	gsp antag
1	C[C@@H]1CN([C@@H](C)CO)S(=O)(=O)c2ccc(Br)cc2O[C@H]1CN(C)C(=O)C1CCOCC1	.	-75%[inhibitor]	.	.
2	O=C(c1cccc(-n2cnnn2)c1)N1CCOCC1	1.2	28%	12%	8%
3	O=C(Cn1sc2ccccc2c1=O)NC12CC3CC(CC(C3)C1)C2	0.4	-23%	2.5µM*	?
4	O=C(O)CCN1CCN(S(=O)(=O)c2ccc3ccccc3c2)CC1	-1.0	-37%[inhibitor]	8%	8%
5	O=C1/C(=C/c2ccc(O)cc2)COc2ccccc21	?	2%[15.4 µM]	9%	3%
6	CCn1nnc(-c2ccccc2NC(=O)c2cnccn2)n1	.	0%	.	3%
7	O=C(NCCc1ccccc1)C1CC(=O)N(C2CCCCC2)C1 (configuration not stated)	3.3	1%	16%	-1%
8	COc1ccccc1CNS(=O)(=O)CCNC(=O)c1ccccc1	.	3%[15.4 µM]	.	8%
9	CCN1CCN(S(=O)(=O)c2ccc(Cl)c(C(=O)Oc3ccc(CC(=O)OC)cc3)c2)CC1	.	11%	.	-5%
10	O=C(Cc1ccccc1)NCC(=O)Nc1ccc(OC(F)(F)F)cc1	-6.8	0%[15.4 µM]	10%	6%

no.	ClpP mod	TRPV1 PAM	CtBP-E1A inh
1	-2.9%	.	-7
2	0.2%	-7	5
3	-19%	-12	10
4	-6.4%	-5	-2
5	.	?	-16
6	-2.1%	.	1
7	-1.7%	5	0
8	.	-4	-15
9	0.2%	.	-1
10	.	1	11

# Full records from above. Values in the order: Menin MLL FP FL	gsp ag	Sfp inh	gsp antag	ClpP mod	TRPV1 PAM	CtBP-E1A inh
# Results for O=C(Cc1ccccc1)NCC(=O)Nc1ccc(OC(F)(F)F)cc1 = -6.8	0%[15.4 µM]	10%	6%	.	1	11
# Results for COc1ccccc1CNS(=O)(=O)CCNC(=O)c1ccccc1 = .	3%[15.4 µM]	.	8%	.	-4	-15
# Results for O=C(NCCc1ccccc1)C1CC(=O)N(C2CCCCC2)C1 (configuration not stated) = 3.3	1%	16%	-1%	-1.7%	5	0
# Results for O=C(c1cccc(-n2cnnn2)c1)N1CCOCC1 = 1.2	28%	12%	8%	0.2%	-7	5

# (listing goes on)
no.	structure	Menin MLL FP FL	gsp ag	Sfp inh	gsp antag
11	O=C(COC(=O)c1ccc(O)cc1)NCC1CCCO1 (configuration not stated)	-1.8	-10%[15.4 µM]	-5%	.
12	CCCCCC(=O)Nc1ccc(N2CCN(CC)CC2)c(Cl)c1	4.6	-36%[inhibitor]	4%	3%
13	Cc1cc(C(=O)CCC(=O)Nc2ncccc2C)c(C)s1	.	15%[15.4 µM]	.	12%
14	O=C(N[C@H]1C/C=C\C[C@H](CC(=O)N(CCO)Cc2ccccc2)C(=O)NC[C@H](c2ccccc2)OC1=O)OCC1c2ccccc2-c2ccccc21	.	.	.	-9%
15	C=CCC[C@H](Cc1ccc(F)cc1)C(=O)OC[C@@H](C)NC(=O)[C@H](CC=C)CC(=O)N(CCO)Cc1ccccc1	.	.	.	-19%
16	COC(=O)c1ccc(NC(=S)Nc2ccc(O)cc2)cc1	-6.0	-9%	?	2%
17	S=C1NCCOCCOCCNC(=S)N2CCOCCOCCN1CCOCCOCC2	-2.4	6%[15.4 µM]	11%	5%
18	C[C@@H](C(=O)Nc1ccc2ccccc2c1)[C@@H]1C[C@@]1(C)[C@@H](NC(=O)OCc1ccccc1)c1ccccc1	1.5&8.8	.	17%&11%	6%
19	Cc1cc(OCC(=O)NCCCN2CCOCC2)cc(C)c1Cl	.	-4%	.	5%
20	COc1ccccc1-n1c(SCC(=O)N2CCOCC2)nc2cccnc21	4.5	4%[15.4 µM]	4%	6%

no.	ClpP mod	TRPV1 PAM	CtBP-E1A inh
11	.	4	-9
12	-0.8%	-19	41
13	0.3%	5	3
14	-2.1%	.	4
15	2.9%	.	0
16	0.3%	-3	.
17	.	7	-5
18	-12%	-8	2
19	-0.9%	.	-2
20	-1.0%	8	-8

# Following part
no.	structure	Menin MLL FP FL	gsp ag	Sfp inh	gsp antag
21	CSc1nccc(-c2sc(SC)c(C#N)c2-c2ccccc2)n1	13	-12%	-19%	?
22	CCCN1C(=O)/C(=C/c2ccc(N3CCOCC3)cc2)NC1=S	?	7%	7%	-19%
23	CCCn1c(C2CCCN2c2nc(-c3cccc(Br)c3)cs2)nc2ccccc21 (configuration not stated)	0.8	.	-17%	-16%
24	COc1ccccc1NC(=O)CSc1nnc2ccc(-c3ccccn3)nn12	.	15%	.	-1%
25	Cc1cnc([N+](=O)[O-])n1CCOC(=O)NC(=O)c1c(F)cccc1F	-2.6	-1%	18%	6%
26	CC(/C=N/n1cnnc1)=C\c1ccccc1	-0.7	10%	1%	17%
27	CCOC(=O)Cc1c(C)nc2c(-c3ccc(Cl)cc3)cnn2c1C	0.8	-7%[15.4 µM]	8%	-5%
28	O=C(CN1CCSC1=NCc1ccccc1)c1ccccc1	-1.4	-8%[15.4 µM]	-5%	18%
29	c1ccc2c(c1)c1cccc3ccc4cccc2c4c31	.	.	.	3%
30	CCCCN1C(=O)C(NC(=O)CC(C)C)(C(F)(F)F)C2=C1CC(C)(C)CC2=O (configuration not stated)	2.2	13%	33%[activator]	-2%

no.	ClpP mod	TRPV1 PAM	CtBP-E1A inh
21	4.2%	-3	.
22	0.8%	-2	14
23	-2.2%	4	-8
24	-3.8%	2	-2
25	0.1%	2	14
26	2.1%	18	6
27	.	4	12
28	0.0%	-3	-2
29	3.7%	0	10
30	0.7%	9	0

# Further compounds:
no.	structure	Menin MLL FP FL	gsp ag	Sfp inh	gsp antag
31	Cc1ccc(NC(=O)CNC(=O)Cn2cnc3sc(C)c(C)c3c2=O)cc1F	.	?	-11%	7%
32	O=C(N/N=C/c1cccc2nccnc12)c1ccccc1O	3.9	15%	?	-14%
33	O=C(NCc1ccccc1)c1cccnc1N1CCOCC1	1.3	14%	10%	4%
34	O=C(NCCN1CCOCC1)c1cc2ccccc2o1	1.7	?	11%	6%
35	COc1cccc(NC(=O)c2ccc(N3C(=O)C4CC=CCC4C3=O)cc2)c1 (configuration not stated)	.	-2%	.	-13%
36	Cc1ccc(NS(=O)(=O)c2ccc(-c3cnc(C4CC4)o3)cc2)c(C)c1	.	3%	-9%	11%
37	Cc1cccc(Nc2nnc(SCC(=O)NCC3CCCO3)s2)c1C (configuration not stated)	.	-19%	.	5%
38	Cc1cc2cc(CNC(=S)NC3CCCCC3)ccc2[nH]1	-0.2	-19%	18%	-13%
39	O=C(O)CC1(CC(=O)NCc2ccc(F)cc2)CCCCC1	0.6	-6%	17%	1%
40	O=C1CC2(CCCCCC2)Oc2ccccc21	.	.	.	2%

no.	ClpP mod	TRPV1 PAM	CtBP-E1A inh
31	2.8%	6	-5
32	-0.1%	.	-76*
33	-1.6%	27	6
34	0.0%	4	1
35	-1.5%	.	.
36	-4.2%	24	.
37	-20%	.	0
38	2.9%	?	.
39	3.3%	20	.
40	4.3%	.	18

# (further entries)
no.	structure	Menin MLL FP FL	gsp ag	Sfp inh	gsp antag
41	CCCn1c(Sc2nc3c(c(=O)[nH]c(=O)n3C)n2CCC)nc2c1c(=O)[nH]c(=O)n2C	3.8	?	9%	9%
42	C#CCOCCOCCOCCNc1nc(N2CCN(C(=O)CCCCCCCCCCNC(=O)[C@H](CCCCN)n3cc(CCO)nn3)CC2)nc(N2CCN(C(=O)CCCCCCCCCCNC(=O)[C@H](CCCCN)n3cc(CCO)nn3)CC2)n1	.	.	.	9%
43	COc1ccc(N(CC(=O)Nc2ccc3c(c2)OCCO3)S(C)(=O)=O)c(OC)c1	0.2	1%	12%	8%
44	CN(C)c1ccc(/C=N/NC(=O)c2ccccc2Cl)cc1	1.7	0%	8%	-2%
45	COc1ccccc1CCNC(=O)CNC(=O)Cc1cccc2ccccc12	-1.2	-1%[15.4 µM]	-3%	-3%
46	O=C1/C(=C/c2ccc(F)cc2)SC(=S)N1NS(=O)(=O)c1ccccc1	-4.0	-1%[15.4 µM]	5%	?
47	O=S(=O)(c1ccc2ccccc2c1)N1C=CC(C(F)(F)F)=NCC1	1.7	2%	-11%	0%
48	COc1ccccc1C(=O)Oc1cc(C)[nH]c(=O)c1[N+](=O)[O-]	2.7	-8%[15.4 µM]	21%	10%
49	CC(=O)Nc1c(O)nc(SC/C=C/CSc2nc(O)c(NC(C)=O)c(=O)[nH]2)[nH]c1=O	-5.3	10%[15.4 µM]	-15%	7%
50	Cc1ccc(-c2n[nH]c(Cc3ccccc3)n2)cc1	.	?	2%	-2%
51	Cc1cccc(C(=O)N[C@@H](C)C(=O)N2CCN(c3ncccn3)CC2)c1	.	-19%	.	7%
52	COc1cc2c(cc1CNC[C@H]1O[C@@H](n3cnc(C(N)=O)n3)[C@H](O)[C@@H]1O)OCO2	.	.	.	6%
53	O=C(C[C@H]1C[C@H](C(=O)N2CCCCC2)[C@@]2(CCc3ccccc3)c3[nH]c4ccc(Cl)cc4c3CCN2C1=O)NCc1ccco1	.	.	.	-18%

no.	ClpP mod	TRPV1 PAM	CtBP-E1A inh
41	-2.0%	10	1
42	0.2%	?	-1
43	0.6%	4	7
44	.	-32	-5
45	-2.2%	-1	3
46	2.2%	21	0
47	2.1%	3	2
48	.	25	-1
49	.	14	12
50	-0.8%	-6	.
51	-6.7%	-2	.
52	1.0%	.	0
53	-3.0%	.	-1

# Some of these compounds in order of their number in Menin MLL FP FL, ascending.
No.	canonical_smiles	Menin MLL FP FL
49	CC(=O)Nc1c(O)nc(SC/C=C/CSc2nc(O)c(NC(C)=O)c(=O)[nH]2)[nH]c1=O	-5.3
43	COc1ccc(N(CC(=O)Nc2ccc3c(c2)OCCO3)S(C)(=O)=O)c(OC)c1	0.2
44	CN(C)c1ccc(/C=N/NC(=O)c2ccccc2Cl)cc1	1.7

# From PubChem BioAssay
